# Screening data deposited in PubChem by National Center for Advancing Translational Sciences (NCATS).
# SNCA viab count: counter-screen for SNCA expression inhibitors: cell viability | HEK-293-SNCA-luc viability, GF-AFC fluorescence, 24 h | AID 1671193 | Potency, µM (top dose mostly 57.1 µM), for the others: at the highest dose activity change, negative = cytotoxicity, most hits filed as cytotoxic | 150,000 compounds, 0.12% hits;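 further: potency means the concentration at half of the fitted maximal effect; 0% = DMSO-treated cells and -100% = medium-only wells without cells; nearly all actives have a fitted effect of over 30% in size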
#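 Cytotoxicity counterscreen: after 24 h compound treatment of genome-edited SNCA-luciferase HEK-293 cells, live-cell protease substrate GF-AFC read by fluorescence after 30 min; activity scaled between DMSO (0%) and medium-only (-100%), curves Hill-fitted.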
# 3T3 cytotox: kills NIH 3T3 cells; NIH 3T3 viability, CellTiter-Glo ATP luminescence, 48-72 h; Potency, µM (titrated, usually from 96.7 µM), for inactives: top-dose activity change, negative = cytotoxicity, hits mostly inhibitors; 94,000 compounds, 4.3% hits; AID 1345082; further: potency means the concentration at half of the fitted maximal effect; nearly all actives have a fitted effect of over 55% in size
#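 Luminescent ATP readout (CellTiter-Glo, 10 min RT) after 48 or 72 hr compound exposure of NIH 3T3 cells seeded at 400 cells/well in 1536-well format; quantitative HTS.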
# IP6K1 inh: blocks human inositol hexakisphosphate kinase 1; activity change, % (series mostly up to about 58 µM); IP6K1 kinase, ADP-Glo luminescence, 2 h; active compounds read low; 140,000 compounds, 0.81% hits; Q92551; in the data active means activity change below about -25%
# Target sequence (Q92551 whole entry, looked up): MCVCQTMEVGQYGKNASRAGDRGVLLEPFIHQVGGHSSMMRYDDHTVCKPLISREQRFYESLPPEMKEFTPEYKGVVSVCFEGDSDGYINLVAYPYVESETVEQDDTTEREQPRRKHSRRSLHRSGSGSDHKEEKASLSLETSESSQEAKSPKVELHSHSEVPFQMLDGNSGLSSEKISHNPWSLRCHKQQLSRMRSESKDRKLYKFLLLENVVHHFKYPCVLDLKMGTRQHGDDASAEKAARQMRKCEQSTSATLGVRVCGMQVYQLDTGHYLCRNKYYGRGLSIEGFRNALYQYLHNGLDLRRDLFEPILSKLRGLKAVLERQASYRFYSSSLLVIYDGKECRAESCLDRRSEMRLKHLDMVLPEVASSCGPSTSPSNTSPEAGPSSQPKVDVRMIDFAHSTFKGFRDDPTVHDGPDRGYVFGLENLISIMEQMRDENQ
#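 ADP-Glo luminescence measures ADP made by human IP6K1 during a 2 h RT reaction with ATP/IP6 (mix at 1.3 mM/130 uM); top library doses 57.5 and 19.1 uM final.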
# SNCA expr inh: SNCA gene expression inhibition; HEK-293 SNCA-luciferase knock-in, luminescence, 24 h; Potency, µM (series often up to 57.2 µM), without a hit: at the highest dose activity change, negative = inhibition, actives largely listed as inhibitors; 140,000 compounds, 0.17% hits; AID 1671194;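 further: potency means the concentration at half of the fitted maximal effect; plate controls were DMSO cells for no effect and cell-free wells for full effect; nearly all actives have a fitted effect of over 45% in size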
# FLuc inh: inhibitors of firefly (Photinus pyralis) luciferase; P08659; purified P. pyralis luciferase, luminescence, biochemical; Potency, µM (highest dose often 115 µM), inactives show top-dose activity change, negative = inhibition, actives largely listed as inhibitors; 76,000 compounds, 2.5% hits; AID 1347043; further: potency means the concentration at half of the fitted maximal effect; nearly all actives have a fitted effect of over 65% in size
#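 Luminescence read by CCD imager after adding enzyme (10nM final) to wells holding compound, titrated in qHTS. Substrates 10uM each D-luciferin and ATP; buffer 50mM Tris acetate pH 7.5, 10mM Mg acetate, Tween-20, BSA.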
# HEK293 tox: HEK 293 cell cytotoxicity; 94,000 compounds, 6.6% hits; HEK 293 viability, ATP luminescence (CellTiter-Glo), 48-72 h; Potency, µM (highest dose often 115 µM), for the others: at the highest dose activity change, negative = cytotoxicity, usual class: inhibitors; further: potency means the concentration at half of the fitted maximal effect; nearly all actives have a fitted effect of over 60% in size
#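 ATP-coupled CellTiter-Glo luminescence served as viability read-out, recorded 10 min after reagent addition at room temperature. HEK 293 cells, 250 cells/well, had been incubated with pintool-transferred compound for 48 or 72 hr at 37 degree Celsius.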
# Numbers without * were called inactive; i = inactive; ? = inconclusive; . = no result given; [ ] = another dose, or the depositor's remark. Unless noted, the call rests on the fitted dose curve; in most records, active means well fitted curve in the direction sought with a large enough effect; inconclusive means small, poorly fitted or top-dose-only effect, or another doubt; inactive means no such curve, though single readings can be large; an effect the other way counts as inactive or inconclusive. Unless noted, on the % scale 0 is the no-effect control and ±100 the full control effect. The list is partial; rates above refer to the full screens.
1. O=C(c1ccccc1Cl)N1CCC2(CC1)OCC(C(=O)N1CCCC1)N2C(=O)c1ccccc1 (stereo unspecified)
2. Cc1oc(-c2cccs2)nc1CN1CCOC(Cc2ccccc2)C1 (stereo unspecified)
3. Cc1cccc(OCCc2noc(C3CN(C(=O)c4cnccc4C)C3)n2)c1
4. COc1ccc(-c2ccc3nc(-c4cc5c(cc4Br)OCO5)oc3c2)c(OC)c1OC
5. CN1[C@@H](CCC(=O)NCc2cccnc2)CNC(=O)[C@@H]2[C@H]1CCN2Cc1cccc(OC(F)(F)F)c1
6. Cc1nn(C)c(C)c1CN(Cc1cnc(N2CCCCC2)nc1)C1CC1
7. COc1ccc(/C=C/CN2CCC3(CC2)C(=O)N(Cc2cccnc2)C(=O)N3C)cc1
8. O=S(=O)(Cc1ccccc1)N1CC(n2cnnc2C2CCCO2)C1 (stereo unspecified)
9. O=C1c2c(nc(COc3ccccc3)n2Cc2ccccc2)NCCN1Cc1cccc(Cl)c1
10. CN1[C@@H](CCC(=O)NCc2cccs2)CNC(=O)[C@@H]2[C@H]1CCN2CC1CC1

compound no.,1,2,3,4,5,6,7,8,9,10
SNCA viab count,-4%,2%,-13%,-3%,9%,-16%,-3%,7%,?,0%[87.6 µM]
3T3 cytotox,?,-23%,-24%,-13%,-5%,?,-7%,-15%,28µM*,-18%[174 µM]
FLuc inh,2%,0%,5%,-20%,-5%,?,10%,.,-1%,1%[172 µM]
HEK293 tox,-20%,?,?,-6%,-1%,25µM*,?,0%,32µM*,-11%[172 µM]
IP6K1 inh,-10,8,21,-8,-12,12,-2,16,-3,12
SNCA expr inh,-5%,36%[activator],2%,3%,-17%,3%,15%,9%,?,-26%[87.6 µM]

11. O=C(CN1CCn2nc(C(O)C3CC3)cc2C1)N1CCc2ccccc21 (stereo unspecified)
12. O=C(C1CCOCC1)N1CCc2nc(OCC3CC3)ccc2C1
13. COc1ccc(CNC(=O)c2cccc3c2CCN3C(=O)c2ccc(F)cc2)cc1
14. CC(C)=CCN1CC2(CCN(C(=O)c3cc(=O)[nH]c(=O)[nH]3)CC2)CC1=O
15. O=C(CNC(=O)c1cccc(-c2ccsc2)c1)NCc1cccc(C(F)(F)F)c1
16. COc1ccc(S(=O)(=O)N2CCCC(Cc3noc(-c4cnccn4)n3)C2)cc1 (stereo unspecified)
17. Fc1ccc(OC2CN(Cc3ccc(C(F)(F)F)cc3)C2)cc1F
18. CC1(c2noc(C3CC3)n2)CCN(C(=O)CCC(=O)N2CC(=O)Nc3ccccc32)CC1
19. O=C(CNC(=O)c1cccc(-c2ccsc2)c1)NCc1ccccc1
20. O=S(=O)(c1ccccc1)N1CCCC(Cc2noc(-c3ccncc3)n2)C1 (stereo unspecified)

compound no.,11,12,13,14,15,16,17,18,19,20
SNCA viab count,4%,18%[12.5 µM],-11%,-7%,10%[12.5 µM],5%,2%,4%,2%,3%
3T3 cytotox,-1%,-10%,-3%,-1%,?,-18%,-19%,-31%,?,?
FLuc inh,0%,-11%,-15%,-3%,.,-5%,.,0%,.,-21%
HEK293 tox,-4%,-15%,0%,-4%,?,8%,-6%,-30%,?,?
IP6K1 inh,-1,4,-8,11,11,0,-13,-19,-7,-1
SNCA expr inh,?,-6%,74%[activator],-7%,22%,3%,3%,-24%,-12%,4%

# Reprinted: compounds 7–19
7. COc1ccc(/C=C/CN2CCC3(CC2)C(=O)N(Cc2cccnc2)C(=O)N3C)cc1
8. O=S(=O)(Cc1ccccc1)N1CC(n2cnnc2C2CCCO2)C1 (stereo unspecified)
9. O=C1c2c(nc(COc3ccccc3)n2Cc2ccccc2)NCCN1Cc1cccc(Cl)c1
10. CN1[C@@H](CCC(=O)NCc2cccs2)CNC(=O)[C@@H]2[C@H]1CCN2CC1CC1
11. O=C(CN1CCn2nc(C(O)C3CC3)cc2C1)N1CCc2ccccc21 (stereo unspecified)
12. O=C(C1CCOCC1)N1CCc2nc(OCC3CC3)ccc2C1
13. COc1ccc(CNC(=O)c2cccc3c2CCN3C(=O)c2ccc(F)cc2)cc1
14. CC(C)=CCN1CC2(CCN(C(=O)c3cc(=O)[nH]c(=O)[nH]3)CC2)CC1=O
15. O=C(CNC(=O)c1cccc(-c2ccsc2)c1)NCc1cccc(C(F)(F)F)c1
16. COc1ccc(S(=O)(=O)N2CCCC(Cc3noc(-c4cnccn4)n3)C2)cc1 (stereo unspecified)
17. Fc1ccc(OC2CN(Cc3ccc(C(F)(F)F)cc3)C2)cc1F
18. CC1(c2noc(C3CC3)n2)CCN(C(=O)CCC(=O)N2CC(=O)Nc3ccccc32)CC1

compound no.,7,8,9,10,11,12,13,14,15,16,17,18
SNCA viab count,-3%,7%,?,0%[87.6 µM],4%,18%[12.5 µM],-11%,-7%,10%[12.5 µM],5%,2%,4%
3T3 cytotox,-7%,-15%,28µM*,-18%[174 µM],-1%,-10%,-3%,-1%,?,-18%,-19%,-31%
FLuc inh,10%,.,-1%,1%[172 µM],0%,-11%,-15%,-3%,.,-5%,.,0%
HEK293 tox,?,0%,32µM*,-11%[172 µM],-4%,-15%,0%,-4%,?,8%,-6%,-30%
IP6K1 inh,-2,16,-3,12,-1,4,-8,11,11,0,-13,-19
SNCA expr inh,15%,9%,?,-26%[87.6 µM],?,-6%,74%[activator],-7%,22%,3%,3%,-24%

19. O=C(CNC(=O)c1cccc(-c2ccsc2)c1)NCc1ccccc1

compound no.,19
SNCA viab count,2%
3T3 cytotox,?
FLuc inh,.
HEK293 tox,?
IP6K1 inh,-7
SNCA expr inh,-12%

# Returning to the listing, starting 2 compounds before the break.
19. O=C(CNC(=O)c1cccc(-c2ccsc2)c1)NCc1ccccc1
20. O=S(=O)(c1ccccc1)N1CCCC(Cc2noc(-c3ccncc3)n2)C1 (stereo unspecified)
21. COc1ccc(CN2CC(Oc3ccc(F)cc3C)C2)cc1
22. CCC[C@H]1CN(Cc2c(C)noc2C)C[C@@H]1NC(=O)CN(C)C(N)=O
23. O=C(NCC1Cn2cccc2C(=O)N1Cc1ccccc1)C1CCOCC1 (stereo unspecified)
24. O=C(CCNc1c(-c2cccc(F)c2)nc2cnccn12)NCC1CCCO1 (stereo unspecified)
25. O=C(C1CCCO1)N1CCN(c2nc(-c3cccnc3)nc3c2CNC3)CC1 (stereo unspecified)
26. CN1[C@@H](CCC(=O)NCc2ccccc2)CNC(=O)[C@@H]2[C@H]1CCN2Cc1cccc(Cl)c1
27. CCCN1CC2(CCN(C)CC2)CC1C(=O)N(C)Cc1ccn[nH]1 (stereo unspecified)
28. O=S(=O)(c1ccc(F)cc1)N1CCCC(Cc2noc(-c3ccncc3)n2)C1 (stereo unspecified)
29. Cc1cccc(OCCc2noc(C3CN(C(=O)NCC4CCCO4)C3)n2)c1 (stereo unspecified)
30. COc1ccc(C2C(C#N)=C(N)Oc3n[nH]c(C)c32)cc1 (stereo unspecified)
31. COc1ncccc1Nc1cnc2ccc(N(C)C)nn12

compound no.,19,20,21,22,23,24,25,26,27,28,29,30,31
SNCA viab count,2%,3%,-26%[87.6 µM],11%,-7%,?,-1%,5%,-13%,3%,-6%,5%,15%[87.6 µM]
3T3 cytotox,?,?,40µM*,-12%,2%,i,4%,?,-4%,?,-25%,-11%,?
FLuc inh,.,-21%,-5%[172 µM],-3%,0%,-2%,-13%,3%,-5%,-6%,-1%,0%,-5%[230 µM]
HEK293 tox,?,?,71µM*,i,-9%,-1%,3%,?,?,?,-17%,-13%,?
IP6K1 inh,-7,-1,12,-1,7,3,12,0,15,6,23,-11,-12
SNCA expr inh,-12%,4%,-20%[87.6 µM],4%,-16%,0%,-19%,1%,?,-3%,9%,-7%,20%[87.6 µM]
